PABP FP inh = PABP-poly(A) binding inhibition; 290,000 tested, 1% active; P11940; PABP-poly(A) RNA binding, fluorescence polarization; inhibition, % at 35 µM;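 active means 50% or more with normal probe brightness, or confirmed in later tests; inconclusive means above 50% with abnormal brightness, or retests that disagree; inactive means below 50% or failed in later tests; about a fifth of its hits are not listed in these tables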;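 further: calls also rest on retests at 20 µM and on dose response follow-up; controls were probe without protein and protein plus probe with vehicle; some compounds called inactive have numbers as strong as hits; many hits fall short of the cut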
Target sequence (P11940 whole entry, looked up): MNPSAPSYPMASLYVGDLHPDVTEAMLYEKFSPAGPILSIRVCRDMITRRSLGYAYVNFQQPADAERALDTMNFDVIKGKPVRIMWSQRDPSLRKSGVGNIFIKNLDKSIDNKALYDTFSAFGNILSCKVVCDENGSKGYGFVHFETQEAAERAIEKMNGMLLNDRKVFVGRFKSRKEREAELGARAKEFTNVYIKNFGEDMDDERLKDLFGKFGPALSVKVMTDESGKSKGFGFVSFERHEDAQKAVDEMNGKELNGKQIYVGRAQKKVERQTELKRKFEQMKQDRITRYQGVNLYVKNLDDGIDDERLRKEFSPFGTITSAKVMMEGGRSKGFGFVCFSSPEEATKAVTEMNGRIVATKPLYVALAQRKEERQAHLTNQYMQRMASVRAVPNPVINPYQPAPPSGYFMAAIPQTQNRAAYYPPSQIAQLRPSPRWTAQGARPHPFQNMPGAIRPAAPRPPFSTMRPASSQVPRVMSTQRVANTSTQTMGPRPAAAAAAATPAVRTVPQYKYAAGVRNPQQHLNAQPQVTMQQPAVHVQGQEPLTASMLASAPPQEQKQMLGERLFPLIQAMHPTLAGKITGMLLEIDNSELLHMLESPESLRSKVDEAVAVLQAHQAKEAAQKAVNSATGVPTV
Rce1 inhib = yeast Ras-converting enzyme inhibition | calls only | 290,000 tested, 0.27% active | AID 2563 | Q03530 | yeast membranes, quenched prenylated peptide cleavage fluorescence;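 active means fall in fluorescence gain of 50% or more versus controls, with final raw signal at or below 3038400; inconclusive means same 50% fall but final raw signal above 3038400; inactive means fall in fluorescence gain under 50%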;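 further: plate controls were neutral control wells for no effect and wells lacking membranes for full effect; tested at 10 µM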
Target sequence (Q03530 whole entry, looked up): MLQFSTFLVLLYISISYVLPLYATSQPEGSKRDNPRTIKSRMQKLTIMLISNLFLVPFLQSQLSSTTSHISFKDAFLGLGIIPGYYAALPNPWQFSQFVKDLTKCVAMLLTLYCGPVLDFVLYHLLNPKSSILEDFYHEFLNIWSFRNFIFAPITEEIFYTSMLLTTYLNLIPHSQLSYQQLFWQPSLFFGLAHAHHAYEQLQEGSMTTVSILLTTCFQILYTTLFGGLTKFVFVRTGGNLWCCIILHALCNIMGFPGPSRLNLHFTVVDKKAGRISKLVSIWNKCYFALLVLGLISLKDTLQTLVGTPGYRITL
Env fusion inh = blocks HIV Env-driven cell-cell fusion. HeLa-JRFL Env/CEM21 cell fusion, luciferase. inhibition, % at 12.3 µM. 360,000 tested, 1.1% active. AID 651610;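 active means mean replicate inhibition score of at least 50 and every replicate individually at or above 50; inconclusive means only one of the two criteria met; inactive means mean below 50 and not all replicates reaching 50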;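 further: 0% = plate neutral controls and 100% = maraviroc near 300 nM; one replicate is shown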
eIF4H inh = inhibitors of RNA binding by human eIF4H. Q15056. eIF4H fluorescence polarization binding assay. inhibition, % at 35 µM. 290,000 tested, 0.94% active. AID 2012;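 active means 50% or more with normal probe brightness, or confirmed in later tests; inconclusive means above 50% with abnormal brightness, or retests that disagree; inactive means below 50% or failed in later tests; about a fifth of its hits are not listed in these tables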;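 further: calls also rest on retests at 20 µM and on dose response follow-up; 0% = protein and probe with vehicle and 100% = probe without protein; strong numbers were not always called active; many hits fall short of the cut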
MT1-MMP act inh = MT1-MMP (human) activation inhibition. HT1080 RFP-PRO-GFP cells, GFP/RFP ratio fluorescence, overnight; percent of plate control window, DMSO zero. GFP/RFP ratio change, % at 20 µM. 360,000 tested, 0.061% active. AID 651647;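 active means GFP/RFP ratio change of at least 30% with cell ATP level not reduced by more than half and red fluorescence within 50% of control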; further: strong numbers were not always called active
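Assay system: RFP-PRO-GFP reporter HT1080 cells; read-out basis: GFP/RFP fluorescence ratio; benchmarks: DMSO wells and RFP-L50D-GFP cells; doses: 20 µM single dose, 1% DMSO; schedule: overnight cell settling, then overnight compound exposure, 37 °C, 5% CO2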
UUG fidelity = alters start codon recognition fidelity in yeast; S. cerevisiae UUG-firefly luciferase reporter, luminescence/redox ratio; 350,000 tested, 0.13% active; activity score, % at 18.7 µM;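 active means replicate mean at a twofold rise or more, about +100% in these data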;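 further: firefly luciferase made from a UUG start codon reports start codon fidelity; reporter light over untreated wells divided by growth signal over untreated wells; some hits fall short of that in this replicate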
CSC inhib = blocks cancer stem cells. cancer stem cell-like cells viability, luminescence. inhibition, % at 7.5 µM. 300,000 tested, 1.1% active;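 active means mean at 75% or more and at least half the replicates too; inconclusive means mean and replicates disagree; tested in HMLE shEcad cells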;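 further: 0% = median of negative and 100% = median of positive control wells; the first replicate is given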
MT1-MMP act inh RFP = recorded beside MT1-MMP act inh, whose call it bears; RFP signal change, %; measured here: RFP expression control read;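 0 = vehicle wells; hits needed this value within 50% of zero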
The depositor's hits bear a star. A portion of the library (hit frequency here may not be typical).

For COc1ccc2[nH]c(C(=O)N3CCCN(Cc4ccc(F)cc4)CC3)cc2c1 the results were PABP FP inh 4, Rce1 inhib inactive, Env fusion inh 11, eIF4H inh -3, MT1-MMP act inh 2, CSC inhib 5 and MT1-MMP act inh RFP -2.
Screening CCn1c2ccccc2c2cc(NC(=O)c3ccc(=O)oc3)ccc21 returned PABP FP inh inconclusive, Rce1 inhib inactive, Env fusion inh -1, eIF4H inh inconclusive, MT1-MMP act inh -6, UUG fidelity 11, CSC inhib 4 and MT1-MMP act inh RFP -2.
For Cc1ccc(CCN2CC(C(=O)NCCCOC(C)C)CC2=O)cc1 (stereo not drawn) the results were PABP FP inh 2, Rce1 inhib inactive, eIF4H inh -8, MT1-MMP act inh -1, UUG fidelity -9, CSC inhib -17 and MT1-MMP act inh RFP 1.
Screening CC(C)(C)c1ccc(S(=O)(=O)NC(=O)C2(C)CCN2C(=O)C2CCCCC2)cc1 (stereo not drawn) returned Env fusion inh 2, MT1-MMP act inh -5, UUG fidelity 3 and MT1-MMP act inh RFP 6.
For C=CCOc1cccc(C(=O)N2CCCC(Nc3ccc4c(c3)OCCO4)C2)c1 (stereo not drawn) the results were PABP FP inh -3, Rce1 inhib inactive, Env fusion inh 12, eIF4H inh -3, MT1-MMP act inh 0, UUG fidelity -7, CSC inhib -1 and MT1-MMP act inh RFP -3.
Cc1cc(C(F)F)n2ncc(C(=O)NCc3ccccc3C(F)(F)F)c2n1 was read as PABP FP inh -9, Rce1 inhib inactive, eIF4H inh -6, MT1-MMP act inh -1, UUG fidelity -8, CSC inhib 12 and MT1-MMP act inh RFP -3.
COc1cccc(-c2cc(NC=O)c3ncc(-c4ccc(C(C)=O)cc4)n3c2)c1 was read as Env fusion inh -177, MT1-MMP act inh -9, UUG fidelity -5 and MT1-MMP act inh RFP -13.
`COc1ccc(N(CC(=O)NC2CCCCC2)C(=O)c2snc(C(N)=O)c2N)cc1` gave PABP FP inh -5, Rce1 inhib inactive, Env fusion inh -3, eIF4H inh 7, MT1-MMP act inh 1, UUG fidelity -12, CSC inhib -13 and MT1-MMP act inh RFP -3.
`COC(=O)C1=CN(c2cccc(Cl)c2)C=C(C(=O)OC)C1c1cccc(OC)c1` gave PABP FP inh 4, Rce1 inhib inactive, Env fusion inh 20, eIF4H inh 0, MT1-MMP act inh -5, UUG fidelity -3, CSC inhib 20 and MT1-MMP act inh RFP -2.
Cc1ccc(NC(C)C(=O)N/N=C/c2c[nH]c3ccccc23)cc1 (stereo not drawn) was read as PABP FP inh -14, Rce1 inhib inactive, Env fusion inh 9, eIF4H inh 3, MT1-MMP act inh 1, CSC inhib 1 and MT1-MMP act inh RFP 1.
`O=C(NC(=S)Nc1ccc(S(=O)(=O)N2CCCC2)cc1)c1cccs1` gave PABP FP inh 2, Rce1 inhib inactive, Env fusion inh -13, eIF4H inh 6, MT1-MMP act inh -1, UUG fidelity -14, CSC inhib -11 and MT1-MMP act inh RFP -2.
Screening O=C(Oc1ccc(-c2ccccc2)cc1)N1CCOCC1 returned PABP FP inh 4, Rce1 inhib inactive, Env fusion inh -78, eIF4H inh -12, MT1-MMP act inh 0, UUG fidelity -9, CSC inhib 6 and MT1-MMP act inh RFP -3.
Screening CC(NC(=O)CNC(=S)N(Cc1ccccc1)Cc1cccnc1)c1ccccc1 (stereo not drawn) returned PABP FP inh 0, Rce1 inhib inactive, Env fusion inh 24, eIF4H inh -3, MT1-MMP act inh -3, UUG fidelity -18, CSC inhib -2 and MT1-MMP act inh RFP -2.
Screening CN(C1CC(C)(C)NC(C)(C)C1)S(=O)(=O)CC12CCC(CC1=O)C2(C)C (stereo not drawn) returned PABP FP inh 3, Rce1 inhib inactive, Env fusion inh -3, eIF4H inh -7, MT1-MMP act inh 2, CSC inhib -1 and MT1-MMP act inh RFP 4.
Screening Cc1cccc(C2=NC(C(F)(F)F)(C(F)(F)F)c3c(n(-c4ccc(F)cc4)c(=O)[nH]c3=O)N2)c1 returned PABP FP inh -2, Rce1 inhib inactive, Env fusion inh 48, eIF4H inh 7, MT1-MMP act inh -7, CSC inhib 11 and MT1-MMP act inh RFP -19.
`COc1ccc(C(=O)NCC(C)(C)CNC(=O)c2ccc(OC)cc2)cc1` gave Rce1 inhib inactive, Env fusion inh 1, MT1-MMP act inh 2, CSC inhib 3 and MT1-MMP act inh RFP 2.
`CCC(NC(=O)C1C2C=CC(C2)C1C(=O)O)c1ccc(C)cc1` (stereo not drawn) gave PABP FP inh -5, Rce1 inhib inactive, Env fusion inh -35, eIF4H inh -1, MT1-MMP act inh 0, UUG fidelity -11, CSC inhib -6 and MT1-MMP act inh RFP 0.
Screening CCCOP(=O)(c1ccc(N(C)C)cc1)C(O)c1ccc(Br)cc1 (stereo not drawn) returned PABP FP inh -2, Rce1 inhib inactive, Env fusion inh 13, eIF4H inh -3, MT1-MMP act inh 2, UUG fidelity -10, CSC inhib -1 and MT1-MMP act inh RFP 2.
CC1(C)OC(=O)C(=CNC(=O)c2c(F)cccc2F)C(=O)O1 was read as PABP FP inh 36, Env fusion inh 8, eIF4H inh -5, MT1-MMP act inh 1, CSC inhib -5 and MT1-MMP act inh RFP 2.
O=c1c2ccccc2nnn1Cc1ccc2ccccc2c1 was read as PABP FP inh 9, Rce1 inhib inactive, Env fusion inh 29, eIF4H inh -2, MT1-MMP act inh -1, CSC inhib 0 and MT1-MMP act inh RFP 0.
For CCOc1ccc(S(=O)(=O)Nc2ccc(C(=O)NCC3CCCO3)cc2)cc1 (stereo not drawn) the results were PABP FP inh -1, Rce1 inhib inactive, Env fusion inh -4, eIF4H inh -13, MT1-MMP act inh 4, UUG fidelity -34, CSC inhib -12 and MT1-MMP act inh RFP 1.
For O=C(c1ccco1)N1CCC(c2nc(-c3ccccc3Cl)no2)CC1 the results were PABP FP inh 0, Rce1 inhib inactive, Env fusion inh 6, eIF4H inh -5, MT1-MMP act inh 2, UUG fidelity 6, CSC inhib 4 and MT1-MMP act inh RFP 4.
For CCCC(=O)Nc1ccc(N2CCOCC2)cc1 the results were PABP FP inh 19, Rce1 inhib inactive, Env fusion inh -107, eIF4H inh 3, MT1-MMP act inh 6, UUG fidelity -8, CSC inhib 5 and MT1-MMP act inh RFP 2.
CN(C(=O)COC(=O)c1cc2ccccc2oc1=O)C1CCCCC1 was read as Env fusion inh -7, MT1-MMP act inh 1, UUG fidelity 7, CSC inhib -8 and MT1-MMP act inh RFP 2.
For CCN(CC)CCCNC(=O)N[C@@H](Cc1ccccc1)C(=O)O the results were PABP FP inh -15, Rce1 inhib inactive, eIF4H inh 2, MT1-MMP act inh 4, UUG fidelity -8 and MT1-MMP act inh RFP 5.
`COC(=O)c1ccc(CN2CCCC(C(=O)Nc3ccc(-c4ccn[nH]4)cc3)C2)cc1` (stereo not drawn) gave PABP FP inh -2, Env fusion inh 0, eIF4H inh -9, MT1-MMP act inh 0, UUG fidelity -20, CSC inhib -7 and MT1-MMP act inh RFP -2.
Screening COc1ccc(CCNC(=O)Cn2cnc3sc(C)c(-c4ccc(F)cc4)c3c2=O)cc1OC returned PABP FP inh -5, Rce1 inhib inactive, Env fusion inh 10, eIF4H inh -1, MT1-MMP act inh 3, UUG fidelity -18, CSC inhib -12 and MT1-MMP act inh RFP -3.
`CCOC(=O)c1oc2ccccc2c1NC(=O)c1ccc2c(c1)OCO2` gave PABP FP inh 1, Rce1 inhib inactive, Env fusion inh -62, eIF4H inh -2, MT1-MMP act inh 5, UUG fidelity -15, CSC inhib 5 and MT1-MMP act inh RFP 1.
CCN(CC)CCNC(=O)c1ccc(NC(=O)c2cn(-c3ccc(F)cc3)nc2-c2cccc(OC)c2)cc1 was read as PABP FP inh -16, Env fusion inh 16, eIF4H inh -20, MT1-MMP act inh 5, UUG fidelity 1, CSC inhib 21 and MT1-MMP act inh RFP 0.
For C/C(=N\Nc1nc2c(s1)CCCC2)c1ccc(Cl)cc1 the results were PABP FP inh -4, Rce1 inhib inactive, Env fusion inh -62, eIF4H inh 2, MT1-MMP act inh 2, UUG fidelity -14, CSC inhib 41 and MT1-MMP act inh RFP 4.
For COc1ccc2nc(C)cc(NCc3cccc(C(F)(F)F)c3)c2c1 the results were PABP FP inh -15, Rce1 inhib inactive, Env fusion inh 14, eIF4H inh -3, MT1-MMP act inh 5, UUG fidelity -9 and MT1-MMP act inh RFP -5.
For COc1nc(Cl)cn(-c2ccc(C)cc2)c1=O the results were PABP FP inh 3, Rce1 inhib inactive, Env fusion inh -30, eIF4H inh -2, MT1-MMP act inh 5, CSC inhib -2 and MT1-MMP act inh RFP 7.
Screening Cc1c(-c2ccc(F)cc2)nc(N)c(C#N)c1-c1cccnc1 returned PABP FP inh -5, Rce1 inhib inactive, Env fusion inh 8, eIF4H inh -1, MT1-MMP act inh 2, UUG fidelity -14, CSC inhib -13 and MT1-MMP act inh RFP -4.
For CN(C)CCCNc1cc(Cl)c(S(=O)(=O)N2CCCCC2)cc1C(=O)O the results were PABP FP inh -9, eIF4H inh 1, MT1-MMP act inh -5, UUG fidelity -15 and MT1-MMP act inh RFP 0.
Screening CCC(=O)Nc1ccc(NC(=O)c2ccccn2)cn1 returned PABP FP inh -1, Rce1 inhib inactive, eIF4H inh -2, MT1-MMP act inh 5, UUG fidelity -28, CSC inhib 6 and MT1-MMP act inh RFP 11.
CCOC(=O)C1=C(N)OC2=C(C(=O)CC(C)(C)C2)C1c1cccs1 (stereo not drawn) was read as PABP FP inh 1, Rce1 inhib inactive, eIF4H inh -1, MT1-MMP act inh -4, UUG fidelity 3, CSC inhib -15 and MT1-MMP act inh RFP 0.
Screening Cc1ccc(NCCC(=O)c2ccc(Cl)cc2)cc1C returned PABP FP inh 2, Rce1 inhib inactive, Env fusion inh 11, eIF4H inh 6, MT1-MMP act inh 6, UUG fidelity -13, CSC inhib -8 and MT1-MMP act inh RFP 4.
`COc1cc(-c2noc(CCC(N)=O)n2)cc(OC)c1OC` gave PABP FP inh 10, Rce1 inhib inactive, Env fusion inh -11 and eIF4H inh 3.
Oc1oc(-c2ccccc2)nc1C=Nc1ccccc1 was read as PABP FP inh 0, Rce1 inhib inactive, Env fusion inh -54, eIF4H inh -1, MT1-MMP act inh 7, CSC inhib -3 and MT1-MMP act inh RFP 0.
Screening CCCC[C@@H]1C=C(C(=O)O)[C@H](c2ccc(C)cc2)N1S(=O)(=O)c1ccc(C)cc1 returned Env fusion inh 23, MT1-MMP act inh 7, UUG fidelity -17 and MT1-MMP act inh RFP 4.
For O=C(Cn1ncnn1)OCc1ccccc1Cl the results were PABP FP inh -1, Rce1 inhib inactive, eIF4H inh -6, MT1-MMP act inh 12, UUG fidelity 7, CSC inhib 10 and MT1-MMP act inh RFP 0.
For C/C(=N\NC(=O)c1ccc(Br)cc1)C1C(=O)c2ccccc2C1=O the results were PABP FP inh 17, Rce1 inhib inactive, eIF4H inh -2, MT1-MMP act inh -1, UUG fidelity -22, CSC inhib inconclusive and MT1-MMP act inh RFP -13.
For O=C1CCC([N+](=O)[O-])C(c2ccc(-c3ccccc3)cc2)N1 (stereo not drawn) the results were Rce1 inhib inactive, Env fusion inh 5, MT1-MMP act inh 2, CSC inhib -3 and MT1-MMP act inh RFP 1.
`Cc1c(S(=O)(=O)NC2CCCCC2)c(=O)n(C)c(=O)n1C` gave Rce1 inhib inactive, Env fusion inh 7, MT1-MMP act inh 4, CSC inhib -1 and MT1-MMP act inh RFP 4.

Random excerpt: 2 compounds from above
`Cc1c(S(=O)(=O)NC2CCCCC2)c(=O)n(C)c(=O)n1C` gave Rce1 inhib inactive, Env fusion inh 7, MT1-MMP act inh 4, CSC inhib -1 and MT1-MMP act inh RFP 4.
For O=C1CCC([N+](=O)[O-])C(c2ccc(-c3ccccc3)cc2)N1 (stereo not drawn) the results were Rce1 inhib inactive, Env fusion inh 5, MT1-MMP act inh 2, CSC inhib -3 and MT1-MMP act inh RFP 1.

Bioassay records (PubChem)
